# Source: PubChem (several laboratories)
# UUG fidelity: modulators of yeast start codon fidelity, primary screen, whole organism, S. cerevisiae, single point, plate reader. S. cerevisiae UUG-firefly luciferase reporter, luminescence/redox ratio. activity score, % at 18.7 µM. actives 0.13% (n = 350,000). AID 602363, 2012;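 active = replicate mean at a twofold rise or more, about +100% in these data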;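 note: firefly luciferase made from a UUG start codon reports start codon fidelity; reporter light over untreated wells divided by growth signal over untreated wells; some hits fall short of that in this replicate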
# Rce1 inh: yeast Rce1p protease inhibitors, primary screen, biochemical, fluorescence, cell-free homogeneous. calls only. CAAX prenyl protease 2 (Saccharomyces cerevisiae (strain ATCC 204508 / S288c)), Q03530. AID 2563, 2010. yeast membranes, quenched prenylated peptide cleavage fluorescence. actives 0.27% (n = 290,000);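 active = fall in fluorescence gain of 50% or more versus controls, with final raw signal at or below 3038400; inconclusive = same 50% fall but final raw signal above 3038400; inactive = fall in fluorescence gain under 50%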;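 note: plate controls were neutral control wells for no effect and wells lacking membranes for full effect; tested at 10 µM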
# Target sequence (Q03530 whole entry, looked up): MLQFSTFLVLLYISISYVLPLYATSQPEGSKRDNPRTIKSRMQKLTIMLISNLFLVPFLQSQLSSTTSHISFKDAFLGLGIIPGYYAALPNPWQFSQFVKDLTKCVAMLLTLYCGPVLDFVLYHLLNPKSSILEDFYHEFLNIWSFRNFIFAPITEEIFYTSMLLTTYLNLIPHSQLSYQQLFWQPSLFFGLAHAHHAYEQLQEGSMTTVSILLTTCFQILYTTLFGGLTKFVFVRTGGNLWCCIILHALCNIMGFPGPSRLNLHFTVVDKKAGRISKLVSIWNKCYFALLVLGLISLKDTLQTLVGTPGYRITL
# CSC inhib: cancer stem cell viability inhibitors, primary screen, luminescence | cancer stem cell-like cells viability | inhibition, % at 7.5 µM | actives 1.1% (n = 300,000) | AID 2717, 2010;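 active = mean at 75% or more and at least half the replicates too; inconclusive = mean and replicates disagree; tested in HMLE shEcad cells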;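 note: 0% = median of negative and 100% = median of positive control wells; the first replicate is given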
# Env fusion inh: inhibitors of HIV-1 Env-driven cell-cell fusion, primary screen, HeLa-JRFL effector, CEM21 target cells, luciferase. actives 1.1% (n = 360,000). inhibition, % at 12.3 µM. AID 651610, 2012;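 active = mean replicate inhibition score of at least 50 and every replicate individually at or above 50; inconclusive = only one of the two criteria met; inactive = mean below 50 and not all replicates reaching 50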;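 note: 0% = plate neutral controls and 100% = maraviroc near 300 nM; one replicate is shown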
# MT1-MMP act inh: blockers of MT1-MMP proenzyme processing, primary screen, HT1080 RFP-PRO-GFP cells, GFP/RFP fluorescence | Matrix metalloproteinase-14 (Homo sapiens), P50281 | GFP/RFP ratio fluorescence, overnight; percent of plate control window, DMSO zero | GFP/RFP ratio change, % at 20 µM | actives 0.061% (n = 360,000) | AID 651647, 2012;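 active = GFP/RFP ratio change of at least 30% with cell ATP level not reduced by more than half and red fluorescence within 50% of control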; note: strong numbers were not always called active
#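 Test system: HT1080 cells expressing an RFP-PRO-GFP fluorescent reporter construct / Compound dosing: single-point 20 µM compound, 1% DMSO / Schedule: cells overnight before dosing, compound overnight, 37 °C, 5% CO2 / Evaluation: GFP/RFP fluorescence ratio / Control set: DMSO and RFP-L50D-GFP cell wells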
# eIF4H FP inh: human eIF4H binding inhibitors, primary screen, translation initiation inhibitor project, biochemical, uHTS, fluorescence polarization; Eukaryotic translation initiation factor 4H (Homo sapiens), Q15056; eIF4H fluorescence polarization binding assay; inhibition, % at 35 µM; actives 0.94% (n = 290,000); AID 2012, 2009;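 active = 50% or more with normal probe brightness, or confirmed in later tests; inconclusive = above 50% with abnormal brightness, or retests that disagree; inactive = below 50% or failed in later tests; about a fifth of its hits are not listed in these tables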;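 note: calls also rest on retests at 20 µM and on dose response follow-up; 0% = protein and probe with vehicle and 100% = probe without protein; strong numbers were not always called active; many hits fall short of the cut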
# PABP FP inh: PABP poly(A) RNA binding inhibitors, primary screen, biochemical, fluorescence polarization, uHTS; Polyadenylate-binding protein 1 (Homo sapiens), P11940; inhibition, % at 35 µM; actives 1% (n = 290,000); AID 2014, 2009;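 active = 50% or more with normal probe brightness, or confirmed in later tests; inconclusive = above 50% with abnormal brightness, or retests that disagree; inactive = below 50% or failed in later tests; about a fifth of its hits are not listed in these tables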;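 note: calls also rest on retests at 20 µM and on dose response follow-up; controls were probe without protein and protein plus probe with vehicle; some compounds called inactive have numbers as strong as hits; many hits fall short of the cut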
# Target sequence (P11940 whole entry, looked up): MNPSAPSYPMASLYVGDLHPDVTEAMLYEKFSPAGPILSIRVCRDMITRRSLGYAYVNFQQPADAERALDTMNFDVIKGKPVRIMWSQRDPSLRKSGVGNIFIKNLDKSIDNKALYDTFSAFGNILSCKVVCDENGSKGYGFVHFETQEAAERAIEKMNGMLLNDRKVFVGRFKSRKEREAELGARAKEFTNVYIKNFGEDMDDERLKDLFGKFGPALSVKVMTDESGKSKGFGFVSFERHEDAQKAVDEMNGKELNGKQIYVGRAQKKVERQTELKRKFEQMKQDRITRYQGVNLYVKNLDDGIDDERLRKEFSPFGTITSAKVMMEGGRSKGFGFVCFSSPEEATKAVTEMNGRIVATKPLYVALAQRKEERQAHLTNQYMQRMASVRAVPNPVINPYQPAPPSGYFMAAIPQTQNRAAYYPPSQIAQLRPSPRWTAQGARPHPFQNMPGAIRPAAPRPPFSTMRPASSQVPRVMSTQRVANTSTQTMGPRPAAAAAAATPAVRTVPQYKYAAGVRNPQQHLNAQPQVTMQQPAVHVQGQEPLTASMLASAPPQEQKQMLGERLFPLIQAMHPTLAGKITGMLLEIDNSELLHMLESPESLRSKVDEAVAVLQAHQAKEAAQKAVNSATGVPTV
# eIF4H FP inh retest: recorded beside eIF4H FP inh, whose call it bears; inhibition, %; compound at 20 µM; confirmation average;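 mean of two retest wells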
# PABP FP inh retest: second read-out of PABP FP inh, no call of its own (marks repeat the call); inhibition, %; compound at 20 µM; confirmation repeats;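 mean of two retest wells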
# MT1-MMP act inh RFP: recorded beside MT1-MMP act inh, whose call it bears; RFP signal change, %; measured here: RFP expression control read;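 0 = vehicle wells; hits needed this value within 50% of zero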
# * = called active by the depositor; i = inactive; ? = inconclusive; . = not tested or not shown.
SMILES,UUG fidelity,Rce1 inh,CSC inhib,Env fusion inh,MT1-MMP act inh,MT1-MMP act inh RFP,eIF4H FP inh,PABP FP inh,others
CC(C)C(=O)Nc1ncc(C(F)(F)F)cc1Cl,-13,i,-13,25,-2,0,10,2,
Cc1ccc2c(C)c(C(=O)Nc3cccnc3)oc2c1C,3,.,.,9,-4,-2,.,.,
CCOC(=O)C1=C(c2ccccc2)NC(=O)NC1c1ccc(OCC#N)c(OC)c1 (stereo unspecified),-5,i,0,.,1,-4,-2,-8,
O=S(=O)(Nc1ccccc1N1CCCCC1)c1ccc(F)cc1,-10,i,6,7,-1,0,4,-1,
CCOC(=O)C1CCCN(c2cc(C)nc3cc(-c4ccc(F)cc4)nn23)C1 (stereo unspecified),-7,i,-4,-26,0,-1,-5,-9,
CC1(C)Cc2ccccc2C(=NCCCC(=O)O)N1,-7,i,-6,-5,1,0,-1,1,
Cc1ccc(NC(=O)[C@H](C)NC(=O)C2CCN(C(=O)[C@@H](N)C(C)C)CC2)cc1,-16,i,-17,9,-2,-2,-2,17,
CC1CCN(c2c(NCc3ccc(C(=O)NCc4cccnc4)cc3)c(=O)c2=O)CC1,-5,i,-6,4,0,-1,-2,-28,
CNC(C)C(=O)NC(C(=O)N1CCCC1C(=O)NNc1ccccc1)C(C)C (stereo unspecified),-22,.,98*,-24,12,8,.,.,
CC1(C(=O)NS(=O)(=O)c2ccccc2Cl)CCN1C(=O)C1(c2ccccc2)CC1 (stereo unspecified),17,.,.,38,-1,3,.,.,
CCc1ccc(NC(=O)C2CCCN(S(=O)(=O)c3ccc4c(c3)CC(C)N4C(C)=O)C2)cc1 (stereo unspecified),-8,i,-7,15,-10,-23,-2,-7,
COc1cc(OC)c(NS(=O)(=O)c2coc(C(N)=O)c2)cc1Cl,-11,i,0,-6,3,6,-11,-3,
CN(C)CC(C)(C)CNS(=O)(=O)CC12CCC(CC1=O)C2(C)C (stereo unspecified),-20,i,-4,-3,-6,1,-12,-11,
O=C(NCc1ccco1)c1ccccc1Br,-45,i,-2,-15,-2,0,1,9,
CCN(C(=O)COC(=O)CNC(=O)c1ccc(C)cc1)c1c(N)n(Cc2ccccc2)c(=O)[nH]c1=O,1,.,-13,.,-2,4,.,.,
Cc1csc(SCC(=O)NC(=O)NC(C)(C)C)n1,.,i,1,3,1,2,-5,-2,
CCOC(=O)c1ccc(NC(=O)NCc2c(C)nn(CC)c2C)cc1,-26,i,-12,21,-4,-3,-5,9,
COc1cc(NC(=O)c2cccc(F)c2)ccc1NC(=O)c1cc2ccccc2o1,-4,i,-4,-40,1,-3,-2,4,
Cc1ccc(S(=O)(=O)N2CCC(=O)N(C(COCc3cccc(C(F)(F)F)c3)Cc3ccccc3)CC2)cc1 (stereo unspecified),17,i,14,56*,-7,-15,2,-1,
CCCc1cc(=O)oc2cc(C)cc(OCC(=O)NCC(O)c3ccccc3)c12 (stereo unspecified),-18,i,-23,-13,1,-2,-6,-14,
CC(=O)c1ccc(-c2nnc(CCC(=O)N(C)Cc3c(C)nc4ccccn34)o2)s1,-20,i,7,3,-2,-6,-2,-5,
Cc1ccc(NC(=O)c2ccc(S(=O)(=O)N3CCCC3)cc2)nc1,.,i,-8,4,2,-3,.,.,
CCOc1ccc2c(c1)C(c1ccc(C)cc1)=NNC(c1ccc(C)cc1)=N2,-16,i,38,.,2,0,0,-9,
CCCCOC(=O)n1c(=O)oc2cc(S(=O)(=O)N3CCCCC3)ccc21,2,i,15,56*,-1,-13,-11,0,
Cc1ccc(NC(=O)NC2C(NC(=O)Nc3ccc(C)cc3)N(C)C(=O)N2C)cc1 (stereo unspecified),-10,i,-9,-34,11,6,-6,5,
COc1ccc(NC(=O)CN2CCN(c3nc(-c4cccc(OC)c4)cs3)CC2)cc1,-5,i,2,1,-1,-4,2,-8,
O=C(CSc1nc2c(cnn2-c2cccc(Cl)c2)c(=O)[nH]1)NCC1CCCO1 (stereo unspecified),-7,.,-3,.,-3,-2,.,.,
NC(=S)N/N=C/c1c(O)ccc2ccccc12,.,i,.,50,-2,-2,4,-1,
O=C(N/N=C\c1ccco1)c1cncc(Br)c1,.,i,-10,-62,.,.,44,-11,
O=C(CCCOc1ccc(Cl)cc1Cl)NCCc1ccccn1,-31,i,-14,22,1,3,-1,1,
CCN(C(=O)CSc1nnc2c3ccccc3n(CC)c2n1)C1CCS(=O)(=O)C1 (stereo unspecified),.,i,3,4,4,4,2,17,
COc1ccc(OC)c(S(=O)(=O)Nc2cccc(-c3ccc4nncn4n3)c2)c1,-2,.,4,18,2,4,8,4,
CC(=O)Nc1ccc(S(=O)(=O)N(C)CC(=O)NCCOc2ccccc2)cc1,-8,.,9,-15,-1,1,.,.,
COc1cc2c(cc1OC)/C(=C/C(=O)N1CCOCC1)NC(C)(C)C2,.,i,-5,.,.,.,0,6,
Nc1nccc(-c2ccc(-n3cnc4ccccc43)cc2)n1,.,i,.,20,-13,-13,-11,71,eIF4H FP inh retest=-13;PABP FP inh retest=1
COc1ccc(S(=O)(=O)n2c(CCN3CCOCC3)nc3ccccc32)cc1,1,i,-5,-7,-2,1,-15,0,
CCc1nnc(NC(=O)CN2CCN(Cc3cccc(F)c3)CC2)s1,-6,i,16,-4,2,0,2,0,
CN(C)S(=O)(=O)c1ccc(C(=O)NCc2cccs2)cc1,-2,i,-2,8,-4,-3,-5,-2,
Cc1cnccc1NC(=O)c1cccs1,.,i,9,6,0,1,0,-4,
CC(C)(C)OC(=O)N1CCC(CNC(=O)c2ccccc2)CC1,-4,i,-10,-1,3,1,-7,5,

# Retrieved one by one from the list above:
SMILES,UUG fidelity,Rce1 inh,CSC inhib,Env fusion inh,MT1-MMP act inh,MT1-MMP act inh RFP,eIF4H FP inh,PABP FP inh,others
CCc1nnc(NC(=O)CN2CCN(Cc3cccc(F)c3)CC2)s1,-6,i,16,-4,2,0,2,0,
Cc1ccc(NC(=O)NC2C(NC(=O)Nc3ccc(C)cc3)N(C)C(=O)N2C)cc1 (stereo unspecified),-10,i,-9,-34,11,6,-6,5,
Cc1cnccc1NC(=O)c1cccs1,.,i,9,6,0,1,0,-4,
O=C(CSc1nc2c(cnn2-c2cccc(Cl)c2)c(=O)[nH]1)NCC1CCCO1 (stereo unspecified),-7,.,-3,.,-3,-2,.,.,
COc1ccc(OC)c(S(=O)(=O)Nc2cccc(-c3ccc4nncn4n3)c2)c1,-2,.,4,18,2,4,8,4,

# Three structures already listed, ordered by formula weight, high to low.
SMILES,UUG fidelity,Rce1 inh,CSC inhib,Env fusion inh,MT1-MMP act inh,MT1-MMP act inh RFP,eIF4H FP inh,PABP FP inh,others
Cc1ccc(NC(=O)NC2C(NC(=O)Nc3ccc(C)cc3)N(C)C(=O)N2C)cc1 (stereo unspecified),-10,i,-9,-34,11,6,-6,5,
CCCCOC(=O)n1c(=O)oc2cc(S(=O)(=O)N3CCCCC3)ccc21,2,i,15,56*,-1,-13,-11,0,
Nc1nccc(-c2ccc(-n3cnc4ccccc43)cc2)n1,.,i,.,20,-13,-13,-11,71,eIF4H FP inh retest=-13;PABP FP inh retest=1

# (cont.)
SMILES,UUG fidelity,Rce1 inh,CSC inhib,Env fusion inh,MT1-MMP act inh,MT1-MMP act inh RFP,eIF4H FP inh,PABP FP inh,others
COc1cc(/C=C/C(=O)OCC(=O)c2c(N)n(C)c(=O)n(C)c2=O)ccc1O,-12,i,-6,15,0,-1,-10,-10,
O=C(NCCCn1ccnc1)c1ccc(S(=O)(=O)Nc2ccccc2)cc1,.,i,49,7,4,4,-10,0,
Cc1nc(SCC(=O)NCCc2ccccc2)c2c(=O)n(C)c(=O)n(C)c2n1,-10,i,-12,-5,-4,2,-10,-4,
O=C(O)CS(=O)(=O)c1ccc(Oc2ccc(S(=O)(=O)CC(=O)O)cc2)cc1,.,.,-6,15,.,.,3,-11,
CC(C)CC(NC(=O)C1CCCN1C(=O)[C@@H](C)NC(=O)OCc1ccccc1)C(=O)NCC(N)=O (stereo partly specified),-4,i,-8,1,2,5,-4,5,
CCOc1cc(NC(=S)Nc2cccc(OC)c2)c(OCC)cc1NC(=O)C(C)C,-22,i,-1,-9,-4,-1,-5,-9,
C/C(=N/NS(=O)(=O)c1ccc(C)cc1)c1c(O)c2ccccc2oc1=O,0,i,-2,11,-1,1,-5,-2,
Cn1c(NNC(=O)C(c2ccccc2)c2ccccc2)cc(=O)n(C)c1=O,-2,i,-6,-5,7,1,-10,17,
COc1ccccc1NS(=O)(=O)c1cccc(C(=O)NCc2ccco2)c1,-3,i,2,-2,-2,0,-7,1,
CCOC(=O)Cn1c(-c2ccc(Cl)nc2)nc2ccccc21,.,i,8,9,0,3,-5,0,
CCOC(=O)N1CCN(S(=O)(=O)c2ccc3c(c2)SC(C)C(=O)N3)CC1 (stereo unspecified),-17,i,-1,?,3,-12,-8,3,
CCCNC(=O)C1(C)CCN1C(=O)C1(c2ccccc2)CC1 (stereo unspecified),-14,.,.,-34,8,1,.,.,
CCOc1ccccc1C(=O)N(Cc1ccccc1)Cc1cc2cc3c(cc2[nH]c1=O)OCCO3,-13,i,51,-12,0,2,.,.,
COc1ccc(OC)c(NC(=S)N2CCN(C(=O)C3CCCO3)CC2)c1 (stereo unspecified),-24,i,.,4,-1,0,2,-8,
COc1cc(OC)cc(C(=O)OCC(=O)N2CCCC2)c1,-4,i,-4,0,6,3,-5,6,
COc1ccc(C2OCC3(CO2)SC(N)=NC3=O)cc1 (stereo unspecified),-32,i,-11,.,-1,1,6,12,
